# Screens: PubChem, National Center for Advancing Translational Sciences (NCATS)
# 2A StopGo = lowers the luciferase signal of an FMDV 2A StopGo reporter. human cells with a luciferase reporter of 2A StopGo recoding; control for the full effect not named in the record. Potency, µM (titrated, usually from 57.9 µM), without a hit: top-dose signal change, negative = less light. 410,000 compounds, 1.2% hits; active = well fitted falling curve with a large enough effect; inconclusive = small, poorly fitted or top-dose-only effect; inactive = no such curve, though single readings can be large or run the other way; tested in HEK293T cells; further: on the % scale 0 is the no-effect control and ±100 the full control effect; nearly all actives have a fitted effect of over 45% in size; luciferase light after 4 h
# RE007 growth inh = less growth of the S. pombe RE007 Vpr strain; Potency, µM (series often up to 92.2 µM), for the others: at the top dose activity change, negative = less growth; 360,000 compounds, 0.21% hits; S. pombe RE007 Vpr strain, BacTiter-Glo ATP luminescence, 24 h; control for the full effect not named in the record; active = well fitted falling curve with a large enough effect; inconclusive = small, poorly fitted or top-dose-only effect; inactive = no such curve, though single readings can be large or run the other way;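 further: on the % scale 0 is the no-effect control and ±100 the full control effect; nearly all actives have a fitted effect of over 50% in size; the assay follows cell death caused by Vpr and the record does not say whether a fall means rescue or toxicity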
#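 Fission yeast RE007 carrying one integrated HIV-1 vpr copy, seeded at OD 0.01 in PMG+AL medium with 23 nL pinned compound. Grown 24 h at 30 degrees; viability read by BacTiter-Glo luminescence after 5 min.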
# Cruzain noTriton = inhibitors of Trypanosoma cruzi cruzain without detergent; purified cruzain, Z-FR-AMC fluorescence, no detergent; Potency, µM, for the others: max response, negative = inhibition, most hits filed as inhibitors; 200,000 compounds, 2.3% hits; AID 1476; active means well fitted curve in the direction sought with a large enough effect; inconclusive means small, poorly fitted or top-dose-only effect, or another doubt; inactive means no such curve, though single readings can be large; an effect the other way counts as inactive or inconclusive;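 further: plate controls were enzyme without inhibitor for no effect and buffer without enzyme for full effect; nearly all actives have a fitted effect of over 40% in size; top concentration of the series not given in the record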
# Target sequence (P25779 123-467 limits assumed): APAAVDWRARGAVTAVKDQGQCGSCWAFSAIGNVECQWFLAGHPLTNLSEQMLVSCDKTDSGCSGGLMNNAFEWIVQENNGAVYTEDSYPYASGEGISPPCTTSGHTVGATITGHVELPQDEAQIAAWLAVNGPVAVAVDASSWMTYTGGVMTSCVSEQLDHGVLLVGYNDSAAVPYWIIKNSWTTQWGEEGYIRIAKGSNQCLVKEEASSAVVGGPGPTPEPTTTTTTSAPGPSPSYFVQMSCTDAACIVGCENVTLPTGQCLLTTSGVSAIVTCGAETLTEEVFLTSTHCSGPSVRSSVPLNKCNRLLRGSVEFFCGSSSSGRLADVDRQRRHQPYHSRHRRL
#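 Purified cruzain at 1.5 nM, pre-incubated 15 min with compound at room temperature in 100 mM sodium acetate pH 5.5, 5 mM DTT, 0.00005% Triton X-100. Reaction started with 2 uM Z-FR-AMC; AMC fluorescence increase over 60 s gives rate.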
# Lassa entry inh = Lassa virus entry inhibition; Potency, µM (series often up to 37.9 µM), without a hit: at the highest dose activity change, negative = inhibition, usual class: inhibitors; AID 540256; 300,000 compounds, 1.2% hits; Lassa virus pseudotype entry inhibition, cell reporter; control for the full effect not named in the record; active means well fitted inhibition curve with a large enough effect; inconclusive means small, poorly fitted or top-dose-only effect, or effect the other way; inactive means flat fitted curve, though single readings scatter; tested in HEK293 cells; further: on the % scale 0 is the no-effect control and ±100 the full control effect; nearly all actives have a fitted effect of over 50% in size; luciferase read-out
# MARV entry inh = Marburg virus entry inhibition. Marburg virus pseudotyped entry inhibition, cell reporter; control for the full effect not named in the record; about a third of the inactives were read at about 46 µM. Potency, µM (series often up to 37.8 µM), without a hit: at the highest dose activity change, negative = inhibition, hits mostly inhibitors. 300,000 compounds, 1.8% hits. AID 540276; active = well fitted inhibition curve with a large enough effect; inconclusive = small, poorly fitted or top-dose-only effect, or effect the other way; inactive = flat fitted curve, though single readings scatter; tested in HEK293 cells; about a fifth of its hits are not listed in these tables; further: on the % scale 0 is the no-effect control and ±100 the full control effect; luciferase read-out
# NS1 inh = influenza NS1 inhibition. S. cerevisiae slowed by influenza A NS1, growth recovery by OD600. Potency, µM (titrated, usually from 46.1 µM), without a hit: at the highest dose activity, positive = more growth. 270,000 compounds, 0.4% hits; further: actives are rising curves; nearly all actives have a fitted effect of over 50% in size
#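 Read-out: OD600 growth recovery of NS1-expressing budding yeast. Cells grown overnight at 30C in -URA glucose medium, washed, resuspended and diluted 1:100 in 2% galactose assay medium, pH 6.0. Same strain lacking NS1 served as positive control.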
# SARS PLP yeast = inhibitors of SARS-CoV papain-like protease in yeast | S. cerevisiae expressing SARS-CoV PLpro, growth rescue; control for the full effect not named in the record | Potency, µM (highest dose often 32.9 µM), without a hit: top-dose activity, positive = growth rescue | 330,000 compounds, 0.19% hits | AID 485353; further: 0% is about no effect; nearly all actives have a fitted effect of over 55% in size; growth read by luminescence after 48 h
# Cruzain inh Det = cruzain (T. cruzi) inhibition with detergent | 200,000 compounds, 0.43% hits | P25779 | purified cruzain, Z-FR-AMC fluorescence, 0.01% Triton | Potency, µM, without a hit: max response, negative = inhibition, usual class: inhibitors; active means well fitted curve in the direction sought with a large enough effect; inconclusive means small, poorly fitted or top-dose-only effect, or another doubt; inactive means no such curve, though single readings can be large; an effect the other way counts as inactive or inconclusive;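 further: plate controls were neutral wells for no effect and buffer without enzyme for full effect; nearly all actives have a fitted effect of over 40% in size; top concentration of the series not given in the record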
#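 15 min RT preincubation of 1.5 nM cruzain with compound, then 2 uM Z-FR-AMC added; kinetic AMC fluorescence, 60 s delta. Triton X-100 0.01%, pH 5.5.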
# Active calls of the source: *; ? = inconclusive; nt = not tested or not shown; & = joins results of further samples; [ ] = remark or other dose. Unless noted, the call rests on the fitted dose curve; in most records, active means well fitted rising curve with a large enough effect; inconclusive means small, poorly fitted or top-dose-only effect; inactive means no such curve, though single readings can be large or run the other way. Potency means the concentration at half of the fitted maximal effect.
SMILES,2A StopGo,RE007 growth inh,Cruzain noTriton,Lassa entry inh,MARV entry inh,NS1 inh,SARS PLP yeast,Cruzain inh Det
COCc1cc(C)n(CC(=O)Nc2ccc(N3CCOCC3)c(Cl)c2)c(=O)c1C#N,-16.6%,8.8%,nt,-0.3%,?,13.1%,10.2%,nt
C=CCn1c(=O)c2ccccc2n2c(SCC(N)=O)nnc12,-25.2%,0.0%,2.5%,3.3%,0.2%,2.0%,0.5%,0.4%
COc1ccc(-c2nnc(SCC(=O)N3c4ccccc4Sc4ccccc43)o2)cc1,-29.8%,17.0%,?,?,-28.4%,13.1%,-31.8%,-0.7%
CC(=O)Nc1cccc(NC(=O)C(=O)NCC(c2ccco2)N2CCc3ccccc3C2)c1 (stereo unspecified),?,-4.6%,nt,-17.9%,?,nt,3.1%,nt
CC(=O)c1cccc(OCC(=O)NC2CCCCCC2)c1,0.0%,-7.4%,nt,7.8%,?,nt,-6.7%,nt
Cc1ccc(C)c(C(=O)NCc2ccncc2)c1,1.1%,-0.6%,-7.9%,3.8%,-0.5%,-5.1%,2.7%,-0.2%
Cc1ncc(CN2CCN(Cc3ccccc3)C(CCO)C2)s1 (stereo unspecified),-9.2%,6.2%,nt,23.9%[46.1 µM],1.6%[46.1 µM],2.4%,1.3%,nt
CC(C)(C)N1CC(c2nc3ccccc3n2Cc2ccccc2)CC1=O (stereo unspecified),-7.3%,-5.4%,-2.0%,1.0%,5.2%,-6.2%,5.3%,-2.4%
COc1ccc(-c2cc(C(=O)Nc3cccnc3)c3ccccc3n2)cc1OC,-21.3%,-4.1%,nt,-4.8%,-2.8%,-5.4%,0.8%,nt
COCCNC(=O)CC(NS(=O)(=O)c1ccc(NC(C)=O)cc1)C(C)C (stereo unspecified),-6.2%,-12.2%,-6.7%,22.0%,20.5%[46.1 µM],14.0%,1.1%,7.3%
COCCN1CCC(CNCc2cn[nH]c2-c2ccc(C)c(C)c2)C1 (stereo unspecified),-17.8%,0.4%,nt,nt,nt,-1.9%,-2.4%,nt
COc1cc(C(=O)N2CCN(c3ccc(C)cc3C)CC2)cc(OC)c1OC,-5.5%,25.0%,?,?,?,-4.5%,18.1%,-4.5%
CC12CCC(c3nnc(SCC(=O)Nc4cccc5ccccc45)nc31)C2(C)C (stereo unspecified),-23.0%,-18.1%,-6.4%,?,-2.6%,-21.4%,2.1%,-3.6%
CC(Nc1nc(N2CCNCC2)nc2ccccc12)c1ccccc1 (stereo unspecified),?,-3.4%,nt,?,?,nt,0.6%,nt
CC(=O)c1cccc(NC(=O)C(OC(=O)c2ccccc2NS(=O)(=O)c2cccs2)c2ccccc2)c1 (stereo unspecified),39.6%[activator],10.9%,7.94µM*,?,?,?,-12.5%,-2.9%
CN(C)S(=O)(=O)N1CCCC(C(=O)c2ccc(-c3ccccc3)cc2)C1 (stereo unspecified),0.0%,-3.1%,nt,-4.5%,1.5%[46.1 µM],-1.5%,-0.9%,nt
O=C(Nc1ccccc1Cl)c1cccc(NC(=O)C2C3CC4OC(=O)C2C4C3)c1 (stereo unspecified),0.0%,-1.0%,0.0%,15.5%,16.9%,?,7.0%,-1.1%
Nc1cc(N)nc(SCc2cc(=O)oc3cc4c(cc23)CCC4)n1,5.1%,-10.0%,?,-11.2%,-16.5%,6.5%,3.4%,-7.0%
Cc1ccc(C2CC(=O)n3nc(-c4cccc(C)c4)nc3S2)cc1 (stereo unspecified),-16.2%,nt,-2.2%,32.2%[46.1 µM],-0.6%[46.1 µM],nt,nt,-2.4%
Cc1ccn2cc(CC(=O)O)nc2c1,4.8%,-14.1%,nt,0.7%[46.1 µM],-7.7%[46.1 µM],7.2%,0.0%,nt
Fc1ccc(CNCC2CCCO2)cc1 (stereo unspecified),-6.9%,5.5%,nt,1.1%,29.1%,-11.6%,2.4%,nt
COc1ccc(S(=O)(=O)N(C)C2(C)CCS(=O)(=O)C2)cc1OC (stereo unspecified),-16.5%,-0.3%,nt,-6.0%,0.8%[46.1 µM],nt,-2.7%,nt
O=C(C1CCCC1)N1CCCC(Nc2ccccc2)C1 (stereo unspecified),-2.2%,-13.7%,nt,3.2%[46.1 µM],-3.5%[46.1 µM],8.6%,4.2%,nt
CCC(C)[C@H](NC(=O)NCCCc1ccccc1)C(=O)OC (stereo partly specified),10.0%,0.1%,-4.1%,5.2%,10.5%,-8.8%,-1.8%,0.6%
C=CCC(=O)NC(C)c1cnn(-c2ccccc2C)c1C (stereo unspecified),10.2%,24.0%,nt,nt,nt,3.7%,-0.6%,nt
Cc1cc2nnc(SCC(=O)N3CCN(c4ccccc4)CC3)n2c(N)n1,-19.8%,18.0%,-7.4%,5.9%,12.0%,12.1%,-1.9%,-5.4%
COc1cccc(C(C(=O)NC2CCCCC2)N(C(=O)c2csnn2)C2CC2)c1 (stereo unspecified),3.8%,-4.1%,nt,?,-6.2%[46.1 µM],-0.9%,0.8%,nt
CC(=O)c1sc2nc(SCC(=O)NCCc3ccccc3)[nH]c(=O)c2c1C,-8.3%,20.1%,nt,nt,nt,1.0%,-5.3%,nt
CCOc1cc(C2C(C(=O)c3ccc(C)cc3)=C(C(=O)OC)Nc3nnnn32)ccc1O (stereo unspecified),-14.2%,4.4%,0.2%,-20.1%,-1.1%,0.5%,2.4%,-2.3%
CCCN(Cc1ccccc1)C(=S)Nc1ccc(SC(F)F)cc1,31.2%[activator],-19.9%,nt,?,?,nt,14.0%,nt
CN1C(=O)NC2C1N(S(C)(=O)=O)CCN2S(C)(=O)=O (stereo unspecified),nt,8.9%,1.1%,13.6%,-3.9%,5.8%,15.7%,0.3%
CCOC(=O)N1CCN(C(=O)c2ccc(OC(C)=O)cc2)CC1,-7.6%,6.8%,nt,-3.1%,16.1%[14.2 µM],nt,1.1%,nt
COC(=O)C1=C(C)N(c2ccc(F)c(Cl)c2)C(=O)C1,-9.0%,-10.7%,-8.3%,?,2.6%,8.6%,-4.7%,-3.5%
CC1=NN(c2ccc(C)cc2C)C(=O)C1C(c1cccc(O)c1)C1C(=O)N(c2ccc(C)cc2C)N=C1C (stereo unspecified),-25.0%,-1.1%,?,-1.4%,18.9%,22.0%,-5.7%,-4.7%
Cc1ccccc1NC(=O)c1ccc2c(c1)N(C)CCS2,43.9%[activator],-11.5%,nt,nt,nt,-8.1%,-0.6%,nt
CCN(CC)C(=O)c1scc2c1OCCO2,-9.2%,-3.0%,-0.8%,-2.7%,-9.1%[46.1 µM],1.4%,3.2%,3.9%
CCCn1c(SCC(=O)N2c3ccccc3Sc3ccccc32)nc2c1c(=O)n(C)c(=O)n2C,5.9%,-19.2%,21.5%,3.0%,0.6%,3.7%,-5.9%,-4.7%
CCn1cc(C2=NOC(C(=O)Nc3cc(OC)c(Cl)cc3OC)C2)c(C)n1 (stereo unspecified),?,-14.6%,?,-9.3%,-1.5%,-4.8%,6.7%,-0.2%
Cc1oncc1C(=S)Nc1ccccc1,nt,-8.2%,2.8%,28.6%,-0.1%,3.6%,0.1%,-1.6%
Cc1nc(NC(=O)C2CC2)sc1C(=O)N1CCCCC1,nt,1.7%,-0.8%,-4.1%,12.4%,3.8%,0.2%,4.9%
COc1cc(NC(=O)c2ccccc2Cl)ccc1NC(=O)c1cccs1,81.1%[activator],1.5%,nt,7.7%,?,nt,0.1%,nt
Cn1c(N)c(C(=O)c2ccc(Oc3ccccc3)cc2)c(=O)n(C)c1=O,38.1%[activator],-24.9%,17.9%,?,16.0%[46.1 µM],7.6%,17.8%,-3.4%
Clc1ccc(CCNc2nc3ccccc3c3nc(-c4ccccc4)nn23)cc1,?,nt,-13.2%,nt,-11.9%[46.1 µM],nt,nt,-1.1%
COC(=O)c1ccc(CSc2nnnn2-c2ccc(C)cc2C)o1,nt,11.4%,6.4%,?,-1.0%,-45.9%,-3.8%,-4.1%
Cc1cccn2c(=O)c(/C=C(\C#N)C(=O)NC3CCS(=O)(=O)C3)c(N3CCC(C(N)=O)CC3)nc12 (stereo unspecified),0.0%,12.4%,-6.0%,21.2%,7.2%,4.5%,16.3%,-13.6%
COc1ccc(NS(=O)(=O)c2cccc(C(=O)N/N=C/c3ccc(O)cc3)c2)cc1,5.9%,-11.3%,nt,?,2.7%[46.1 µM],nt,-0.5%,nt
CNS(=O)(=O)c1cnccc1N1CCN(C)CC1,-15.6%,2.0%,-8.5%,1.6%,0.3%,-4.9%,-21.0%,-1.4%
COc1ccc(NC(=O)c2cccc(S(=O)(=O)N3CCCCCC3)c2)cc1,-2.1%,7.4%,nt,-10.9%,-11.3%[46.1 µM],5.0%,1.4%,nt
COc1ccc(OC)c(C(c2nnnn2C2CCCC2)N2CCc3ccccc3C2)c1 (stereo unspecified),-9.3%,1.3%,-5.1%,?,?,-59.7%,-28.3%,-2.3%
O=C(NCCn1cc(SCc2ccccc2F)c2ccccc21)c1c(F)cccc1F,?,9.7%,7.1%,1.4%,4.0%,-14.4%,15.9%,-5.7%
COc1ccc(/C=N/NC(=O)C(=O)NCc2cccnc2)cc1OC,16.0%,5.6%,-7.0%,-3.7%,-1.4%,-1.2%,9.4%,-5.0%
CCCC(=O)Nc1ccc(C(=O)NN=C(C2CC2)C2CC2)cc1,-6.4%,-10.8%,1.6%,-10.3%,-7.0%,17.2%,0.7%,0.3%
CC(C)CC1NC(=O)N(CCCCN2C(=O)c3ccccc3C2=O)C1=O (stereo unspecified),-16.9%,18.0%,nt,1.6%,28.3%[46.1 µM],nt,2.7%,nt
CCOC(=O)c1c(C)[nH]c(C)c1S(=O)(=O)N1CCC(C(=O)NCc2ccc(F)cc2)CC1,12.6%,nt,-5.3%,-12.6%[46.1 µM],nt,nt,nt,2.2%
C[C@](N)(CCP(=O)(O)O)C(=O)O,-15.3%&-25.3%,-5.2%[18.4 µM],0.7%,nt,nt,nt,nt,-2.6%
CCCn1c2c(c(O)c(C(=O)Nc3ncccc3C)c1=O)CCCC2,-14.8%,-4.0%,-7.6%,14.1%,7.8%,-138.1%,-4.9%,-11.7%
Cc1c(Cl)cccc1NC(=O)CSc1nc(=O)n(Cc2ccncc2)c2c1CCC2,-20.9%,nt,7.9%,-20.9%[46.1 µM],nt,nt,nt,-2.9%
